gsp ag: qHTS for Agonist of gsp, the Etiologic Mutation Responsible for Fibrous Dysplasia/McCune-Albright Syndrome: qHTS; gsp mutant cells, cAMP HTRF, 30 min; control for the full effect not named in the record; Potency, µM (titrated, usually from 76.9 µM), for inactives: at the highest dose activation (cAMP increase), actives largely listed as activators; 340,000 compounds, 0.13% hits; active = well fitted activation curve with a large enough effect; inconclusive = small, poorly fitted or top-dose-only effect, or another doubt; inactive = no such curve, though single readings can be large or run the other way; cell line not stated here;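 further: phosphodiesterase inhibitor Ro 20-1724 added with compounds to block cAMP breakdown; potency means the concentration at half of the fitted maximal effect; nearly all actives have a fitted effect of over 60% in size; about a fifth of the inactives were tested at one dose only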
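Cells stably selected in G418 were plated at 2000/well, grown 16-24 hr, then given compounds in DMSO with the PDE inhibitor […] (300 uM solution added) for 30 min at 37C; cAMP was read by HTRF.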
Menin-MLL FL inh: qHTS Assay for Inhibitors Targeting the Menin-MLL Interaction in MLL Related Leukemias: Competition With Fluorescein Labeled MLL-derived Peptide. 290,000 tested, under 10 active. Fluorescence polarization, fluorescein-MLL peptide displacement from menin. FP activity change, % at 61.4 µM; inconclusive = falling polarisation curve, or a change in total fluorescence; inactive = total fluorescence flat and polarisation flat or rising; no compound was filed as active; the % refers to the polarisation; negative = inhibition;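 further: % of control where 0% means no effect; inhibitors lower the polarisation; unlabelled MLL peptide was the positive control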
gsp antagonist: qHTS for Antagonists of gsp, the Etiologic Mutation Responsible for Fibrous Dysplasia/McCune-Albright Syndrome: qHTS. AID 624288, 2012. Potency, µM (titrated, usually from 76.9 µM), without a hit: top-dose activity change, negative = inhibition, usual class: inhibitors. 340,000 compounds, 0.4% hits. gsp-mutant cells, cAMP HTRF, 30 min; control for the full effect not named in the record; active = falling curve of any shape with a large fitted effect; inconclusive = falling curve, mostly with a smaller effect; inactive = flat or rising curve; cell line not stated here;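 further: intracellular cAMP measured with PDE inhibitor Ro 20-1724 present during compound exposure; potency means the concentration at half of the fitted maximal effect; on the % scale 0 is the no-effect control and ±100 the full control effect; nearly all actives have a fitted effect of over 65% in size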
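Measurement of cellular cAMP by homogeneous time-resolved fluorescence following a 30 min compound exposure at 37C. The PDE inhibitor […] was present throughout; the assay buffer was DPBS with 0.05% BSA and 0.005% Tween 20.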
ClpP mod: qHTS Assay for Activators of ClpP | AID 651965, 2013 | Potency, µM (doses to about 57.5 µM), inactives show top-dose activity change, negative = active | purified B. subtilis ClpP, FRET peptide cleavage, 20 min | 340,000 compounds, 1.9% hits | ATP-dependent Clp protease proteolytic subunit (Bacillus subtilis (strain 168)), P80244; active = well fitted falling curve with a large enough effect; inconclusive = small, poorly fitted or top-dose-only effect; inactive = no such curve, though single readings can be large or run the other way; further: potency means the concentration at half of the fitted maximal effect; the source files actives as falling curves though it sought activators and does not explain the sign; nearly all actives have a fitted effect of over 65% in size; many hits overshoot -100%
Target sequence (P80244 whole entry, looked up): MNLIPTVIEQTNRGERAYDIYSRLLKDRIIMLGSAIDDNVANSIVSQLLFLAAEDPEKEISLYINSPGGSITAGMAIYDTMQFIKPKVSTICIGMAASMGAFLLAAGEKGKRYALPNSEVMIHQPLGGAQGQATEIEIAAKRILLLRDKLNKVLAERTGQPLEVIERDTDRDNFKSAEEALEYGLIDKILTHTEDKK
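ClpP 10 microg/mL final, pH 8 Tris/KCl buffer with BSA, glycerol, Tween-20; compound pinned in; FRET-FV substrate; RT 20 min; Ex320/Em430; ΔFRET vs ADEP 5.8 microM, DMSO, no enzyme.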
TRPV1 potentiator: HTS Assay for Compounds that Act as Potentiators of the Vanilloid Receptor 1 | Transient receptor potential cation channel subfamily V member 1 (Homo sapiens), Q8NER1 | TRPV1-expressing cells, Fluo-8 calcium influx, capsaicin EC20 potentiation; host cell line not named in the record; control for the full effect not named in the record | potentiation, % at 8.33 µM | 320,000 compounds, 0.02% hits; active means potentiation above 80%; inconclusive means 30% to 80%; inactive means below 30%; further: 0% is about no effect
Target sequence (Q8NER1 whole entry, looked up): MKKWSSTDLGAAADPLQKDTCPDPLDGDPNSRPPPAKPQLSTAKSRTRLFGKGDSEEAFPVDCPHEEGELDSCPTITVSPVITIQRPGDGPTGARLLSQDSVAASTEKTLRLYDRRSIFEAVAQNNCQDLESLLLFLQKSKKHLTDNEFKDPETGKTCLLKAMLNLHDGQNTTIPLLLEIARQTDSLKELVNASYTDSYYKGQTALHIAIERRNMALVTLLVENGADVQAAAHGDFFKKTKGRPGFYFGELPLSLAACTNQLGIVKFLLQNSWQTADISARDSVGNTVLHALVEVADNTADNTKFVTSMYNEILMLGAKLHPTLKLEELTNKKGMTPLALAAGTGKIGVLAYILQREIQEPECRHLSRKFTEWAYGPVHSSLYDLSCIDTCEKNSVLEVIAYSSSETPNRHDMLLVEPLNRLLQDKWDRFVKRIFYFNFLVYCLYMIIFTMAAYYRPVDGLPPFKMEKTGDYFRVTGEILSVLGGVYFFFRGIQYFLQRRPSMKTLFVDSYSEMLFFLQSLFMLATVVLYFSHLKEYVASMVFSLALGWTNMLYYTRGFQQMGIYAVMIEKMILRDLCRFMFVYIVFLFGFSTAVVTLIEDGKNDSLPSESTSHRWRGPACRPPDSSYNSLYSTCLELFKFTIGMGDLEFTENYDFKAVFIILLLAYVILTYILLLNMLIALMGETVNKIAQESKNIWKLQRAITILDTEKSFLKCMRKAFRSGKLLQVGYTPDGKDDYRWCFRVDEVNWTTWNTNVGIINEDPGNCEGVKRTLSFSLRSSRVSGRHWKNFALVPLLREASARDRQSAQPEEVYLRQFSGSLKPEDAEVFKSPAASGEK
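TRPV1-expressing cells were cultured overnight at 35.5C and loaded with Fluo-8 calcium dye for 40 to 90 min at room temperature. After a 10 s baseline, compound was added and calcium influx was read kinetically for 3 min (ex 480/em 520 nm).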
Sfp PPTase inh: qHTS Assay for Inhibitors of Bacillus subtilis Sfp phosphopantetheinyl transferase (PPTase) | Biochemical Sfp PPTase activity, qHTS | Potency, µM, for the others: max response, negative = inhibition, actives largely listed as inhibitors | AID 1490, 2009 | 310,000 compounds, 3.5% hits | 4'-phosphopantetheinyl transferase ffp (Bacillus subtilis), Q9F4F7; active means well fitted inhibition curve with a large enough effect; inconclusive means small, poorly fitted or top-dose-only effect, or another doubt; inactive means no such curve, though single readings can be large or run the other way;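 further: the enzyme is Sfp with the accession as filed and its product quenches rhodamine fluorescence; potency means the concentration at half of the fitted maximal effect; 0% = enzyme reaction without inhibitor and -100% = no enzyme wells; top concentration of the series not given in the record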
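Fluorescence-quenching assay with 15 nM Sfp, 5 uM rhodamine-CoA and 12.5 uM BHQ-2-labelled ybbR peptide in pH 7.6 Hepes/MgCl2 buffer. Enzyme was pre-incubated with compound for 15 min at room temperature. Rate was taken from the 30-min fluorescence change (525/598 nm).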
CtBP-E1A inh: qHTS Assay for Inhibitors of the CtBP/E1A Interaction; AID 651724, 2012; AlphaScreen GST-E1A/His-CtBP binding, 1536-well; active compounds read low; control for the full effect not named in the record; 340,000 compounds, 0.49% hits; activity change, % (no concentration beside the values); CtBP / adenovirus E1A interaction (AlphaScreen); in the data active means activity change below about -65%; inconclusive means about -30% to -65%; inactive means above about -30%; further: on the % scale 0 is the no-effect control and ±100 the full control effect
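Homogeneous bead-based format: GST-tagged E1A captured on glutathione donor beads, His-tagged CtBP on nickel acceptor beads; compounds precede bead addition by 2 h at 37 °C.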
Active calls of the source: *; ? = inconclusive; nt = no result given; & = joins results of further samples; [ ] = dose if it differs, or a comment.

Each structure is followed by: gsp ag | Menin-MLL FL inh | gsp antagonist | ClpP mod | TRPV1 potentiator | Sfp PPTase inh | CtBP-E1A inh
[1] COc1ccc(C(=O)N2N=C(c3cccc(NS(C)(=O)=O)c3)CC2c2cccs2)cc1 (centres undefined)
    ? | 0.2 | -25.8% | -1.8% | -4.1 | 6.1% | -4.8
[2] Cn1nc(-c2ccccc2)c(C(O)c2ccccc2C(F)(F)F)c1Cl (centres undefined)
    5.3% | 1.3 | -1.8% | -1.3% | 21.4 | -14.8% | 0.7
[3] Cc1cc(CNC(=S)Nc2ccc(S(=O)(=O)Nc3ncccn3)cc2)nn1C
    13.9%[15.4 µM] | -0.5 | 5.2% | 1.6% | 0.7 | -14.7% | 7.8
[4] CCOc1ccc2nc(SCC(=O)c3ccc(Cl)s3)sc2c1
    7.7% | ? | 0.0% | -2.7% | 3.6 | 2.4% | 15.2
[5] COC(=O)c1cc(NC(=O)Cn2c(=O)oc3ccccc32)cc(C(=O)OC)c1
    -1.5% | -11.5 | 4.6% | nt | 17.2 | -16.3% | -1.5
[6] O=C1CC(N(Cc2cccs2)C(=O)Nc2ccccc2)C(=O)N1c1ccc(Cl)cc1 (centres undefined)
    -21.7% | 1.7 | ? | 0.8% | ? | -5.1% | 2.4
[7] CCOc1ccc(OCCNC(=O)C(NC(=O)c2c(F)cccc2F)C(C)C)cc1 (centres undefined)
    ? | nt | 4.9% | -0.7% | 11.1 | nt | -2.5
[8] COC(=O)c1ccc(Cl)cc1NC(=O)/C=C/c1ccc(C)o1
    -0.7%[15.4 µM] | 18.1 | -10.9% | nt | -10.7 | 25.1µM* | 0.6
[9] COc1ccccc1CN1CC(C(=O)NCCc2ncccc2C)CCC1=O (centres undefined)
    -18.2% | -5.7 | -1.6% | 0.0% | -9.0 | 5.8% | nt
[10] COc1ccc(NC(=O)N(C)C[C@@H]2Oc3cc(Br)ccc3S(=O)(=O)N([C@H](C)CO)C[C@H]2C)cc1
    -18.2% | nt | nt | -0.2% | nt | nt | -6.5
[11] Cc1c(C(=O)O)sc2nc(/C=C/c3ccccc3OC(F)F)[nH]c(=O)c12
    0.2%[15.4 µM] | -4.3 | -10.0% | nt | 7.7 | ? | -16.3
[12] COCC(=O)N1CCC(Oc2ccc(C(=O)N3C[C@@H](C)O[C@@H](C)C3)cc2)CC1
    -12.6% | nt | 11.8% | -0.4% | 5.0 | 8.7% | 2.9
[13] Cc1nn(CC(O)COc2ccc3c(c2)CCC3)c(C)c1Br (centres undefined)
    -31.5%[inhibitor] | -0.7 | -3.5% | -0.9% | 12.2 | 19.5% | 4.4
[14] CCN(CC)C(=O)Cn1nc(-c2ccncc2)nc1SCC(=O)Nc1ccc(OC)cc1
    ? | -1.8 | -4.7% | nt | -10.1 | 2.9% | -13.6
[15] Cc1ccc(Sc2ccc(NC(=O)CCN3C(=O)NC4(CCCC4)C3=O)cc2)c(C)c1
    38.4% | nt | -16.2% | -1.3% | -13.0 | nt | nt
[16] CC(CSc1n[nH]c(=S)s1)c1ccccc1 (centres undefined)
    16.2% | nt | -13.7% | nt | nt | nt | -18.3
[17] CCOCCCNS(=O)(=O)c1ccc(NC(=O)Cc2c(F)cccc2Cl)cc1
    -2.6%[15.4 µM] | -1.9 | 3.4% | nt | -2.8 | 7.3% | 5.8
[18] Cc1cccc(CNC(=O)C2CCC(=O)N(CCCc3ccccc3)C2)c1 (centres undefined)
    ? | nt | nt | 0.9% | nt | nt | 1.0
[19] O=[N+]([O-])c1cccc(S(=O)(=O)/N=C(/Nc2ccccc2)c2ccccc2)c1
    -32.3%[inhibitor] | nt | -12.7% | 1.2% | nt | nt | 2.2
[20] CC(=O)c1ccc(NC2OC(C)C(O)C(O)C2O)cc1 (centres undefined)
    -9.6% | 3.5 | 8.8% | -9.2% | 0.1 | 11.2% | 3.4
[21] CCOc1ccc(NS(=O)(=O)c2ccc3[nH]cc(C(=O)NC(C)CC)c(=O)c3c2)cc1 (centres undefined)
    2.3% | 0.8 | -8.0% | -3.3% | -8.2 | 13.1% | -1.5
[22] COc1ccc2nc(C(F)(F)C(F)(F)F)c(C#N)c(N)c2c1
    -12.5% | -1.7 | -14.7% | ? | -48.4 | 8.6% | 1.0
[23] CNC(=O)COC(=O)CNC(=O)c1cc(Cl)cc([N+](=O)[O-])c1
    9.8%[15.4 µM] | 0.2 | nt | nt | -2.0 | 1.8% | 9.6
[24] O=C(CNC(=O)c1ccco1)NCCCc1ccccc1
    -14.6% | 0.0 | 0.3% | -1.5% | -3.6 | 19.9% | -1.4
[25] CC(C)c1ccc(NC2CCCN(C(=O)CN3C(=O)CSC3=O)C2)cc1 (centres undefined)
    6.5% | -3.9 | 0.6% | 0.1% | -6.5 | 4.7% | -4.1
[26] Cc1cc(C)cc(NS(=O)(=O)c2ccc(NC(=O)c3ccccc3C(=O)O)cc2)c1
    -24.3% | nt | 3.7% | 0.2% | nt | nt | -6.5
[27] CCOC(=O)c1sc(=S)n(-c2ccc3c(c2)OCO3)c1N
    -6.8% | 20.7 | ? | -1.9% | ? | 28.2µM* | -23.7
[28] O=C(CCNC(=O)C1CCN(S(=O)(=O)c2ccc(F)cc2)CC1)NCc1ccc(F)cc1
    12.9% | 3.7 | 11.3% | -0.8% | -15.2 | 23.6% | 2.9
[29] CCn1c(C)nc2cc(C(=O)NNC(=S)Nc3ccccc3OC)ccc21
    -8.6% | 0.3 | -0.7% | 4.1% | nt | 14.2% | 7.9
[30] CCN(CC)N=Nc1ccc(S(=O)(=O)Nc2c(C)n(C)n(-c3ccccc3)c2=O)cc1
    -4.3% | -4.5 | -8.2% | 0.8% | 7.1 | 14.6% | 6.7
[31] CCOc1ccc(S(=O)(=O)NCCC(=O)NCCOc2ccccc2)cc1
    -0.3%[15.4 µM] | nt | -6.3% | nt | 3.5 | nt | -1.1
[32] Cc1csc(NC(=O)CSCC(=O)Nc2ccccc2)n1
    0.3% | 4.6 | 1.9% | -2.5% | 8.5 | 10.5% | 4.8
[33] CCC(C)(C)NC(=O)CN(C(=O)C(=O)Nc1ccc2c(c1)OCCO2)C(C)(C)CC
    2.0%[15.4 µM] | 1.4 | -8.7% | 1.0% | -5.0 | -2.9% | 12.1
[34] CCNC(=O)CC1C(=O)N(c2ccc(OC)cc2)C(=S)N1CCc1ccncc1 (centres undefined)
    nt | 0.0 | nt | nt | -2.2 | -15.2% | nt
[35] CCOC(=O)Cn1nnnc1CN(Cc1ccc(OC)cc1)Cc1cc2cc(C)cc(C)c2[nH]c1=O
    1.9% | -1.1 | -8.9% | -5.9% | 6.7 | 35.5µM* | 16.9
[36] O=C(/C=C/c1cccs1)Nc1ccc(S(=O)(=O)Nc2ncccn2)cc1
    -0.4%[15.4 µM] | 2.1 | -11.7% | nt | 22.8 | 9.0% | -4.1
[37] COc1cccc(CN2CCN(CC(=O)NCCc3ccccc3)CC2)c1
    -20.2%[15.4 µM] | 2.1 | 6.1% | -1.3% | -1.4 | -1.1% | -7.4
[38] CCOC(=O)C[C@H]1c2ccc(C(F)(F)F)cc2S(=O)(=O)N1Cc1ccccc1
    15.4% | nt | -14.0% | 0.2%&0.2% | nt | nt | 25.7
[39] COc1cccc(/C=C/C(=O)OCC(=O)Nc2ccc(S(=O)(=O)N3CCCC3)cc2)c1
    8.9%[15.4 µM] | -4.8 | 2.1% | -1.5% | -2.4 | 79.4µM* | ?
[40] CCCC[C@@H]1CCCO[C@@](C(=O)NCc2ccc(C)o2)(C(F)(F)F)C1
    9.6% | 17.8 | -2.0% | 2.9% | nt | ? | 8.3
[41] COc1ccc([N+](=O)[O-])cc1NC(=O)Cn1ccc(C(F)(F)F)n1
    -1.2%[15.4 µM] | 1.2 | 1.9% | nt | 9.8 | 15.3% | -4.4
[42] Cc1ccc(CCNC(=O)C2CC(c3ccccc3C(F)(F)F)=NO2)cc1 (centres undefined)
    2.3% | 1.5 | -6.0% | -1.6% | 14.7 | 4.3% | nt
[43] COCc1nnc(NC(=O)c2ccc(S(=O)(=O)N(C)c3ccccc3)cc2)o1
    -1.7% | 7.7 | -4.6% | 0.8% | -2.7 | 17.1% | -29.7
[44] O=C(Nc1ccc2nc3n(c(=O)c2c1)CCCC3)c1cncc(Br)c1
    -44.6%[inhibitor] | nt | -1.5% | -5.4% | nt | nt | -65.3*
[45] O=c1c(-c2ccnn2-c2ccccc2F)cnc2n1CCS2
    13.7% | 0.7 | 12.5% | -2.3% | -3.9 | 23.2% | 3.5
[46] C[C@@H]1CN(C(=O)c2ccc(OC3CCN(S(=O)(=O)N(C)C)CC3)cc2)C[C@H](C)O1
    7.7% | 0.8 | -2.1% | -2.6% | 0.8 | 1.9% | -5.0
[47] CC(C)CC(=O)NC1(C(F)(F)F)NC(=O)N(c2ccccc2)C1=O (centres undefined)
    13.9% | -1.8 | 2.5% | nt | -10.2 | 25.1% | -11.2
[48] Cc1cccc(NC(=O)c2sc3nc4c(c(-c5ccco5)c3c2N)CCC4)c1
    30.2% | 0.7 | -0.5% | -0.9% | 1.9 | -15.6% | 8.7
[49] COc1ccc(CC(=O)Oc2ccc(C(C)C)cc2)cc1S(=O)(=O)N1CCOCC1
    -17.2% | nt | 8.9% | 1.1% | 0.1 | nt | 13.6
[50] COc1ccc([N+](=O)[O-])cc1NC(=O)CS(=O)(=O)c1ccc(C)cc1
    6.4% | 0.1 | -15.0% | -2.8% | -18.4 | 18.2% | -12.4
[51] O=C(CSc1nnc(Cn2cnc3ccccc32)o1)c1ccccc1
    -27.9% | 3.4 | -2.7% | -0.7% | -26.1 | -6.9% | -1.8

Screening data: PubChem, National Center for Advancing Translational Sciences (NCATS)
